Screening data as filed in PubChem.
Beta2AR agonist – agonists of human beta-2 adrenergic receptor inducing internalization; response, % (concentration not given with the values); AID 504454; 340,000 compounds, 0.43% hits; Am2.2-beta2AR cells, FAP receptor internalization, flow cytometry; reference of the scale not given here; P07550;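 active = response above a set limit, near 3 SD of response in nonfluorescent compounds, cut at about 42% in these data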;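 note: stock transfer was 100 nL into about 11 µL; a reference agonist was the positive control; negative values mostly stem from fluorescent compounds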
Target sequence (P07550 whole entry, looked up): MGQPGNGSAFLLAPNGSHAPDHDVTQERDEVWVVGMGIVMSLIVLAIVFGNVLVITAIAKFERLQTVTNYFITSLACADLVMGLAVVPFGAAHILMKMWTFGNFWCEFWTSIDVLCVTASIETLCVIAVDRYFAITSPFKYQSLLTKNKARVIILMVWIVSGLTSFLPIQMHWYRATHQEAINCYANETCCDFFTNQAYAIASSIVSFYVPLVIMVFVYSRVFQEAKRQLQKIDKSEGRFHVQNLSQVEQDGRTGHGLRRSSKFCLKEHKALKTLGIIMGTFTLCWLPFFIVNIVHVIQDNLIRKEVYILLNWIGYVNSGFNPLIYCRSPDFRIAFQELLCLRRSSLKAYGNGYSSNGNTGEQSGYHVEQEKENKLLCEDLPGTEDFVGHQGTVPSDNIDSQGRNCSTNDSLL
Bfl-1 A1 inh – inhibitors of the anti-apoptotic protein A1, read as caspase activation | MEF A1-2A-BIM cells, Caspase-Glo 3/7 luminescence, 3 h; percent of clofoctol response, vehicle zero | caspase activation, % (test concentration not listed) | 330,000 compounds, 0.066% hits | AID 2462;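 active = over half of replicate activation scores above 10%, or exactly half above 10 with the replicate mean above 10; inconclusive = replicate mean below 10 yet half the replicates above 10; inactive = over half of replicates below 10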;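 note: wells of about 30 µL received 50 nL stock; many hits fall short of the cut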
HNF4A DNA FP – change in binding of human HNF4 alpha to DNA. 360,000 compounds, 0.3% hits. HNF4a-FITC DNA binding, fluorescence polarization, 1 h. activity change, % at 10 µM. P41235; in the data active = activity change above about 30%, passing the limit was not always enough;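 note: controls were the assay level and a saturating level of protein; the project sought stronger binding though the title names inhibitors; some compounds called inactive have numbers as strong as hits; positive values seem to mean higher polarization but the record does not say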
UCH37 DUB inh – blocks the human deubiquitinase UCH37. Q9Y5K5. purified proteasome/UCH37, Ub-AMC cleavage fluorescence. inhibition, % (no concentration beside the values). 330,000 compounds, 0.33% hits;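 active = mean of two replicates above 20%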;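 note: 0% = compound-free wells with enzyme and 100% = wells lacking proteasome; stock transfer was 100 nL into about 20 µL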
Target sequence (Q9Y5K5 whole entry, looked up): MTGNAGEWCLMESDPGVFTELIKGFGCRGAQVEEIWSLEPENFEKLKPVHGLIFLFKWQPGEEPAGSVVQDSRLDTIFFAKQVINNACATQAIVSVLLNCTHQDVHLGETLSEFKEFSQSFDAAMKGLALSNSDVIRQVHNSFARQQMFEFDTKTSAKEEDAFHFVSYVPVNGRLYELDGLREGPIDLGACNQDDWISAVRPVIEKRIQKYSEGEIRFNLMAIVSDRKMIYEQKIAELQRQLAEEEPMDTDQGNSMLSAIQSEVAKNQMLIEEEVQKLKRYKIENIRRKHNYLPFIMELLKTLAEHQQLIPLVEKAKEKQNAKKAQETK
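Test system – human UCH37 enzyme supplied as purified proteasome complex · Incubation – 30 min preincubation with enzyme, 25 min cleavage at room temperature · Detection – AMC fluorescence from Ub-AMC cleavage, excitation 355 nm, emission 460 nm · Benchmarks – no-proteasome wells (full inhibition) and compound-free wells (no inhibition)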
Ecoli growth – inhibitors of Escherichia coli growth. OD600, 23 h; stronger effect = lower value. OD600 absorbance (test concentration not listed). 330,000 compounds, 0.21% hits;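 active = OD600 absorbance below the run mean of sample wells minus 3.6 SD, in any replicate, cut at about 0.56 in these data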;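 note: stock transfer was 300 nL into about 60 µL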
Vif A3G – HIV-1 Vif–A3G interaction blockers – biochemical, TR-FRET, GST-Vif 1-94, biotin-A3G peptide, dose response retest, primary screen (AID 1117319); TR-FRET GST-Vif / biotin-A3G peptide binding; higher % means a stronger effect; test concentration not given here; strong numbers were not always called active; one-dose inhibition, %; IC50 in µM for titrated hits; 260,000 compounds, 0.57% hits;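 active = above the screen mean plus three standard deviations and confirmed in dose response; inconclusive = results disagree or hit not tested in dose response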;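 note: Vif residues 1-94 fused to GST binding biotinylated APOBEC3G peptide 110-148; 0% = full assay without inhibitor and 100% = GST in place of GST-Vif; retest series ran down from 100 µM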
LANA-H2A inh – blocks KSHV LANA binding to histone H2A/H2B; cell-free LANA-H2A/H2B peptide, fluorescence polarization; Q9QR71; AID 2629; inhibition, % (test concentration not listed); 320,000 compounds, 0.6% hits; in the data active = inhibition mostly above about 10%, no sharp cut-off; inactive = mostly below about 6.7%;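 note: stock transfer was 7.5 nL into about 10 µL; 0% = median of vehicle wells and 100% = median of positive control wells; one replicate is shown; the record names a cut of 25% in any replicate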
The depositor's hits bear a star; i = inactive; ? = inconclusive; · = no result given; & = joins results of further samples.

Compound	Beta2AR agonist	Bfl-1 A1 inh	HNF4A DNA FP	UCH37 DUB inh	Ecoli growth	Vif A3G	LANA-H2A inh
COc1ccc(S(=O)(=O)N2CCOCC2)cc1NC(=O)Cc1coc2cc(C)ccc12	-6	·	2.8	0.3	0.63	4%	·
COc1ccc(C(=O)NC(=S)Nc2cc(C)ccn2)cc1[N+](=O)[O-]	-19	0.1	-3.3	7.1	0.68	·	4.2
Brc1ccc(OCc2nnnn2-c2ccccc2)cc1	-9	0.5	-2.0	1.2	0.69	-11%	2.0
COc1ccc(NC(=O)C2CCCC2)cc1S(=O)(=O)N1CCOCC1	2	-0.2	0.6	-2.0	0.68	-13%	-5.8
Nc1nc(NCc2ccco2)nc(Nc2ccc(F)cc2)c1[N+](=O)[O-]	-8	-0.3	-0.4	4.6	0.64	2%	-0.4
COc1ccc(CCNC(=O)COc2ccc(-c3ccccc3)cc2)cc1OC	-2	-0.6	3.6	-0.2	0.69	9%	4.2
CC(=O)Nc1ccc(S(=O)(=O)Nc2ccc(S(=O)(=O)Nc3nccs3)cc2)cc1	0	0.0	-2.1	2.2	0.69	·	3.0
CCCn1c(=O)c(Br)cn(-c2ccccc2C)c1=O	-2	-0.1	-4.5	6.8	0.67	·	-1.8
Cc1cccc(C)c1NC(=S)NC(C)(C)CO	-1	2.0	5.7	6.2	0.67	21%	-2.8
O=C(N1CCOCC1)N1CCN(C(=O)N(c2ccccc2)c2ccccc2)CC1	3	0.7	-2.3	0.6	0.68	4%	6.1
Cc1nn(-c2ccccc2)c(Cl)c1C(=O)NCC1CCCO1 (stereo unspecified)	1	0.5	0.3	5.1	0.71	1%	24*
Cc1cccc(CNc2ncnc3[nH]ncc23)c1	-6	·	1.2	3.3	0.65	-8%	·
COc1ccc(CNC(=O)/C=C/c2ccc(OCCCF)cc2)cc1	-3	0.5	-1.1	2.3	0.75	33%	0.2
O=C(COc1ccccc1Cl)NCCCNC(=O)c1ccccn1	0	0.1	3.1	2.4	0.69	·	-1.2
C/C(=N\OCC(=O)O)c1ccc(Cl)cc1	-4	-1.0	-3.0	·	·	-4%	6.0
CCc1ccc(C2C(C#N)=C(N)OC3=C2C(=O)CCC3)s1 (stereo unspecified)	2	-0.5	1.2	5.6	0.68	·	-5.3
CCOC(=O)C1(CCCc2ccccc2)CCN(C(=O)Cc2nonc2C)CC1	-16	1.2	0.5	2.5	0.7	-1%	1.6
CCOc1ccc(/C=N/NC(=O)Cn2ccnc2C)cc1	2	0.8	1.1	·	·	20%	3.0
CC(C)OCCCN1C=C2C(=O)C(C)(OC(=O)CCc3ccccc3)C(=O)C=C2C=C1c1ccc(C#N)cc1 (stereo unspecified)	·	1.1	·	4.0	0.69	12%	1.3
Cc1ccc(-c2cnc(NC(=O)CCC(=O)N3CCCCC3)n2C)cc1	-4	-0.8	-0.5	-0.3	0.68	28%	-2.6
O=C(NNC(=O)C1CC1)c1cc(Br)c(Br)s1	-2	-1.6	1.4	2.8	0.66	·	0.5
COc1cnc(-c2ccccn2)nc1Oc1cccc(C(F)(F)F)c1	-6	0.4	0.1	·	·	·	-5.1
CCOc1ccc(-c2cc(C(=O)N3CCN(C)CC3)c3ccccc3n2)cc1	9	-0.6	0.1	i	0.72	32%	-0.7
Cc1ccc(NC(=O)C2CCCN(S(=O)(=O)c3cnc[nH]3)C2)cc1F (stereo unspecified)	0	0.0	4.0	4.6	0.75	11%	-0.4
COC(=O)C(C#N)c1nc2ccccc2nc1N1CCCC1 (stereo unspecified)	-18	0.9	1.8	-20	0.68	12%	-1.1
Cc1cn(-c2cc(C(=O)Nc3ccc(C)c(NC(=O)C(=O)c4c[nH]c5ccccc45)c3)cc(C(F)(F)F)c2)cn1	4	0.3	5.4&6.6	·	·	-5%	8.8
CCc1ccc(CNC(=O)C2CC(=O)N(C3CCCC3)C2)cc1 (stereo unspecified)	-1	-0.6	0.1	0.5	0.69	·	-1.2
CCN(CC)C(=O)Cn1cc(S(=O)(=O)CC(=O)NC2CCCCC2)c2ccccc21	-5	0.5	-2.1	2.4	0.69	-3%	3.5
CCOC(=O)c1c(SC)nc(SC)c2c1CCC2	0	-0.2	2.5	-0.2	0.76	-4%	-1.8
Cc1ccc(C(=O)NC2CCCCCCC2)cc1S(=O)(=O)N1CCOCC1	-3	·	-2.0	0.1	0.68	-2%	·
O=C(COC(=O)C1(c2ccc(Cl)cc2)CCCC1)Nc1ncc(C(F)(F)F)cc1Cl	-12	1.0	0.7	-1.1	0.72	9%	1.2
COc1ccc(Br)cc1C(=O)Nc1ccc(C(=O)NCC(C)C)cc1	3	-0.4	-0.3	-2.3	0.69	-3%	0.4
CCc1nnc(NC(=O)CSc2nnc(-c3ccco3)n2CC)s1	-20	0.0	-0.1	6.4	0.71	-1%	-3.9
CC1CCN(C(=O)NC(=O)c2ccc(Cl)cc2)CC1	-2	-0.1	-0.1	0.7	0.73	0%	-2.5
O=C(CSc1nnc(CCCO)n1-c1ccccc1)Nc1nccs1	8	0.2	-1.9	1.2	0.68	-1%	5.4
COc1ccc(C(C)=NNC(=O)c2cccc(S(=O)(=O)N3CCCC3)c2)cc1	2	2.7	1.5	2.9	0.67	-1%	2.7
O=C(COc1ccc(Cl)cc1Cl)N1CCNC1=O	-5	-0.8	-1.2	0.2	0.64	·	-1.1
COCCCNC(=S)NNC(=O)c1ccoc1C	-2	1.0	-0.3	-1.2	0.7	·	2.6
CCOC(=O)C(=Cc1ccc(Br)cc1)C(=O)OCC	0	1.9	-0.3	4.5	0.67	12%	3.8
C1=Nc2ccccc2CN1c1ccccc1	-4	-3.1	-3.0	-2.3	0.61	·	-3.1
COc1cc(CN2CCCC(N3CCc4ccccc4C3)C2)c(Cl)cc1O (stereo unspecified)	8	0.5	-0.3	5.0	0.72	·	-3.3
O=C(CSc1ccccn1)N1CCCC(Nc2ccccc2)C1 (stereo unspecified)	5	·	1.2	2.7	0.71	2%	·
CCc1ccc(NC(=O)COc2ccc(/C=C(/C#N)c3nc4ccccc4[nH]3)cc2OC)cc1	0	0.8	2.2	-129	0.65	?	-4.0
CCN1C(=O)C(c2ccc(O)cc2)(c2ccc(O)cc2)c2ccccc21	4	-0.4	-4.1	5.7	0.69	-5%	4.1
CCOc1ccccc1-n1c(N)c(C(N)=O)sc1=S	4	2.3	1.6	10	0.66	32%	-2.5
CCc1ccc(NC(=O)C(=O)NCC2CCCN2S(=O)(=O)c2cccs2)cc1 (stereo unspecified)	5	-0.5	1.1	3.8	0.64	2%	-1.5
COc1ncnc2c1oc1nc(C)c3c(c12)CC(C)(C)OC3	9	-0.1	1.3	6.2	0.66	28%	1.4
CCc1ccccc1N(C(C)=O)c1nc(CN=C=S)cs1	-4	0.4	0.9	3.1	0.63	·	-7.2
CCCCC[n+]1ccn(C2=C([O-])c3ccccc3C(=O)/C2=N\S(=O)(=O)c2ccccc2)c1	-4	2.2	-2.3	24*	0.72	7%	-3.7
CCOC(=O)c1nc(NCCc2ccccc2)sc1C	-4	-0.6	2.6	3.9	0.69	4%	2.0
Nc1ccccc1NC(=O)c1ccccc1	11	-0.7	3.7	1.7	0.66	-5%	3.5
Cn1c(-c2sccc2OCc2ccccc2)n[nH]c1=S	14	0.2	-2.5	4.3	0.69	8%	-4.8
Cc1sc2ncnc(N3CCC(C(=O)NNC(=O)COc4cccc(C(F)(F)F)c4)CC3)c2c1C	12	-0.4	0.5	1.3	0.7	12%	-0.1
O=C(O)CN1C(=O)/C(=C\c2ccccc2OCc2ccc(Cl)cc2)SC1=S	7	0.4	-4.7	·	·	-1%	-3.8
Fc1ccccc1/C=N/Nc1ccc(Cl)nn1	0	-0.9	2.4	·	·	-7%	-0.5
COc1nc(NC2CCCCC2)nc(NC(C)(C)C)n1	2	-0.4	-2.8	2.3	0.63	·	-3.0

(further entries)
Compound	Beta2AR agonist	Bfl-1 A1 inh	HNF4A DNA FP	UCH37 DUB inh	Ecoli growth	Vif A3G	LANA-H2A inh
O=c1cc(CN2CCN(c3ccc(O)cc3)CC2)nc2scc(-c3ccccc3)n12	0	-0.2	-5.3	2.7	0.71	?	-1.7
Cc1ccc(C)c(C(=O)CSc2nc3ccccc3c(=O)[nH]2)c1	-8	1.0	0.3	2.2	0.67	-7%	-8.8
Nc1ccc(-c2ncc(-c3ccccc3)o2)cc1	1	-6.5	1.8	i	0.65	·	-2.0
Cc1[nH]c2ccccc2c1C(=O)CN1CC(C)CC(C)C1 (stereo unspecified)	13	0.0	2.4	3.4	0.64	-12%	-0.2
O=c1c(Cc2ccccc2)c(O)ccn1Cc1ccc2c(c1)OCO2	-3	0.1	-2.3	0.4	0.66	10%	-2.3
CCOc1cc(NS(=O)(=O)c2ccc(NC(C)=O)cc2)c(OCC)cc1NC(=O)C(C)C	-4	0.7	1.1	5.0	0.76	10%	-2.8
CC(C)OCc1ccc(C(=O)N2CCN(S(=O)(=O)c3ccc(Br)s3)CC2)cc1	10	-1.3	-7.0	0.8	0.7	-11%	4.4
CCc1ccc2nc(NC(=O)c3ccc(N4C(=O)CCC4=O)cc3)sc2c1	-3	-0.2	-1.2	-4.0	0.66	1%	-1.4
COc1ccc2oc(C(=O)N3CCc4ccccc43)c(C)c2c1	-6	-6.6	-2.2	-1.2	0.75	·	1.0
COc1ccc(/C=C(\C#N)C(=O)OCC(=O)NCc2ccc(Cl)cc2)cc1	·	0.3	·	-2.9	0.69	·	-1.5
COc1cc(CNCc2ccc(C)cc2)cc(OC)c1OC	14	0.1	-3.4	1.1	0.63	·	-1.3
O=C(NCc1cccnc1)c1ccc(NS(=O)(=O)c2ccc(F)cc2)cc1	4	0.4	1.6	0.1	0.63	·	0.1
CC(=O)Oc1ccc(C(=O)Nc2cc(NC(=O)c3ccc(OC(C)=O)cc3)cc(C(=O)NC(C)(C)C)c2)cc1	14	2.1	5.7	3.3	0.73	-4%	-2.8
Cc1ccc(-c2nc3n(n2)Cc2ccccc2-3)cc1	-24	-16	-2.6	1.4	0.69	-9%	-3.7
CCCNC(=O)C1CCN(S(=O)(=O)c2ccc(-c3nn[nH]n3)cc2)CC1	-15	-0.9	0.0	3.8	0.71	20%	-11
CC1CCCN(C(C(=O)Nc2ccc3c(c2)OCO3)c2ccccc2)C1 (stereo unspecified)	26	-0.4	3.0	3.9	0.69	-1%	-3.1
COc1ccc(NC(=O)Cc2c(SC)c3ccccc3n2Cc2ccccc2)cc1	6	0.3	2.9	5.3	0.74	·	5.9
O=C(CN1C(=O)CSC1=O)N1CCCC(Nc2ccc(F)cc2)C1 (stereo unspecified)	7	0.0	-3.5	2.4	0.64	-5%	-4.4
O=C(COC(=O)Cn1cnc2ccccc21)Nc1ccc(OC(F)F)cc1	10	1.7	-1.9	1.1	0.61	·	0.8
O=C(CN1C(=O)c2ccccc2S1(=O)=O)Nc1cccnc1	2	-0.3	2.2	4.9	0.69	1%&2%	2.0
O=C(O)c1nn(CC(=O)N2CCN(S(=O)(=O)c3ccc(Cl)cc3)CC2)c(=O)c2ccccc12	-2	0.1	2.6	1.4	0.68	4%	2.5
